# GLA inh pH 4.5 – blocks human alpha-galactosidase A at pH 4.5. purified enzyme, 4-MU-alpha-Gal fluorescence, pH 4.5. activity change, negative = inhibition, % at 105 µM. 230,000 tested, under 10 active. AID 1467; inconclusive = small, poorly fitted or top-dose-only inhibition, or a rising curve; inactive = flat fitted curve, though single readings scatter; no compound was filed as active;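 also: 0% = full activity with enzyme and -100% = basal without enzyme; dose as in the result columns while the protocol names 77 µM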
# Rango-impB inh – inhibitors of Rango-importin beta complex formation. Rango CFP/YFP FRET sensor + importin beta, 45 min. Potency, µM (highest dose often 92.2 µM), for the others: at the top dose inhibition of complex formation. hit rate 0.031% among 340,000. AID 540263; active = rising FRET ratio curve, often small or poorly fitted; inconclusive = mostly compound fluorescence or quenching in the first reads; inactive = flat curves in all reads;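 also: potency is read from the fitted curve at half-maximal effect; 0% = DMSO wells and 100% = buffer wells lacking importin beta; nearly all actives have a fitted effect of over 15% in size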
# Target sequence (Q14974 whole entry, looked up): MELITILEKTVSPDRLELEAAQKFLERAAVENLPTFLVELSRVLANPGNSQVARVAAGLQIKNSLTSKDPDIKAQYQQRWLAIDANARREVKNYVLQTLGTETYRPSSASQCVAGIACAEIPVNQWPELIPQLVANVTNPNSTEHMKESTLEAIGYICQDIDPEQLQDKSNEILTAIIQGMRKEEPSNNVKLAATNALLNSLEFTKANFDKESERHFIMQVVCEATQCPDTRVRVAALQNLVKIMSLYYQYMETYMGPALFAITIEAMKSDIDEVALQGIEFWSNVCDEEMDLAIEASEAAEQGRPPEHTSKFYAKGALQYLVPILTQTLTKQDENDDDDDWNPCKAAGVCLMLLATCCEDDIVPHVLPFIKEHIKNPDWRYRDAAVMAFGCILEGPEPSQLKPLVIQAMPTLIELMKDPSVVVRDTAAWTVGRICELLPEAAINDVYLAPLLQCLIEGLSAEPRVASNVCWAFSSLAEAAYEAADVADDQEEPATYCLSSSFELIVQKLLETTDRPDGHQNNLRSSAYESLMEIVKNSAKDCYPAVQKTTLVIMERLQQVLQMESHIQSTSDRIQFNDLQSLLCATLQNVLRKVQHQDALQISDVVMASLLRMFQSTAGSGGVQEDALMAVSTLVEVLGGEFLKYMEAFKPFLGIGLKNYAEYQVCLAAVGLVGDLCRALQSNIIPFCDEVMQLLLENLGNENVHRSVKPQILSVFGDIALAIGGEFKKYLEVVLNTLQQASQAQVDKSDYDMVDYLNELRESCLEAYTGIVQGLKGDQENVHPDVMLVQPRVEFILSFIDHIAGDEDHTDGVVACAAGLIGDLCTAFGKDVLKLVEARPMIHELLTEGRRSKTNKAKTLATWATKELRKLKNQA
#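 Inhibition scored from the CFP 486 nm/YFP 530 nm FRET ratio 45 min after adding 0.125 microM importin beta to 50 nM Rango biosensor preincubated 5 min with compound (room temperature, PBS with DTT, Tween-20, BSA). No-importin wells as positive control.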
# miR-21 FLuc – raises the signal of a miR-21 reporter | HeLa miR-21 FLuc reporter, luciferase, 48 h | Potency, µM (series often up to 38.3 µM), inactives show top-dose reporter change, positive = more light | 340,000 tested, under 10 active; active = well fitted rising curve with a large enough effect; inconclusive = small, poorly fitted or top-dose-only effect; inactive = no such curve, though single readings can be large or run the other way;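 also: % of control where 0% means no effect; miR-21 action dims this reporter so a rising signal means less miR-21 action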
#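 HeLa miR-21-FLuc reporter line, endogenous miR-21; 2000 cells/well in DMEM/10% FBS; compound titration up to ~40uM final, 48 h, 37 degree Celsius; luciferase detection reagent, 15 min lysis, CCD luminescence.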
# Rango release inh – prevents RanGTP from dissociating the Rango-importin beta complex; O95149+P62826; Biochemical FRET Rango-importin beta, RanGTP-induced dissociation; Potency, µM (highest dose often 46.1 µM), for inactives: top-dose activity change, negative = inhibition; hit rate 0.071% among 340,000; AID 540253; active means falling FRET ratio curve, often poorly fitted, with flat reads before Ran was added; inconclusive means other falling curves, or compound fluorescence or quenching; inactive means flat or rising ratio curve;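 also: potency is read from the fitted curve at half-maximal effect; % of control where 0% means no effect; nearly all actives have a fitted effect of over 45% in size; -100% = wells without RanGTP and RCC1; the record marks most hits as doubtful in a second field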
#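 Rango/importin beta premix (0.1/0.25 uM final), PBS + 1 mM DTT + 0.02% Tween-20 + 0.1% BSA; cpd 5 min RT; FRET pre-read; + RanGTP-RCC1 (0.6 uM Ran, 2 mM GTP, 0.2 uM RCC1); 45 min RT; FRET post-read, ex 430, em 486/530 nm.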
# * = called active by the depositor; ? = inconclusive; nt = no result given; & = joins results of further samples; [ ] = another dose, or the depositor's remark.
cpd	miR-21 FLuc	Rango-impB inh	GLA inh pH 4.5	Rango release inh	SMILES
1	1%	3.2%	nt	12%	O=C(CCS(=O)(=O)Cc1ccccc1)Nc1nncs1
2	nt	3.2%	nt	7%	CCN(c1ccccc1)S(=O)(=O)c1ccc(C(=O)Nc2ncccc2C)cc1
3	-2%	-3.9%	-14[21.1 µM]	13%	CCCCCn1c(SCC(=O)CC(=O)OCC)nc2cc(C(=O)N3CCC(C(N)=O)CC3)ccc2c1=O
4	1%	2.9%	2	-5%	O=S(=O)(Cc1ccccc1)C1CCCCC1O (centres undefined)
5	nt	-2.0%	nt	-7%	O=C(NN=Cc1ccccc1Cl)c1ccc([N+](=O)[O-])cc1
6	-14%	-0.4%	4	-1%	Cc1occc1C(=O)NNC(=O)c1cccc(F)c1
7	-3%	0.9%	nt	-10%	COc1ccc(C(=O)NC2CC2)cc1OC1CCN(Cc2cnn(C)c2)CC1
8	-11%	0.0%	-5	4%	O=C(CNCCO)N1N=C(c2cccs2)CC1c1cccs1 (centres undefined)
9	-35%	-5.0%	nt	-1%	C/C(=N\NC(=O)c1ccccc1F)c1cccc(NC(=O)c2ccc(C)cc2)c1
10	-12%	-0.1%	3	-8%	COc1ccccc1OCc1ccc(C(=O)n2nc(C)c(Cl)c2C)o1
11	4%	1.4%	nt	1%	COc1ccc(NC2CCCN(C(=O)CSc3ccncc3)C2)cc1 (centres undefined)
12	-44%	-3.9%	1	-10%	COc1ccc(C(=O)Nc2ccc3c(c2)nc2n3CCSC2)cc1
13	1%	-1.4%	-6	-20%	Cc1ccc(C(C(=O)NCc2ccc(F)cc2)N(CCCO)C(=O)C2COc3ccccc3O2)o1 (centres undefined)
14	-5%	1.1%	0	40%	CCC(=Nc1ccc(Cc2ccncc2)cc1)c1c(O)n(C)c(=O)n(C)c1=O
15	0%	nt	-9	nt	Cn1c(SCn2nnc3ccccc3c2=O)nc2ccccc2c1=O
16	0%	-3.7%	nt	-12%	O=C(Nc1ccc(F)cc1)C1CCCN(S(=O)(=O)c2cccc3nonc23)C1 (centres undefined)
17	3%	1.1%	-1	?	CN(C)C(=O)c1cccn1-c1ncc(C(F)(F)F)cc1Cl
18	-13%	?	1	?	O=C(O)CC(C(=O)O)N1C(=O)/C(=C/c2ccc(-c3nc4ccccc4s3)o2)SC1=S (centres undefined)
19	-48%&-1%	?	nt	32%	O=C(Nc1nnc(S(=O)(=O)N2CCOCC2)s1)c1cccc(F)c1
20	0%	5.5%	nt	-14%	COc1cccc2cc(C(=O)C3=C(O)C(=O)N(CCN4CCOCC4)C3c3cccc(Cl)c3)oc12 (centres undefined)
21	-6%	0.0%	12	9%	COc1ccc(OC)c(C2=NOC(C(=O)Nc3cc(C)nn3-c3ccccc3)C2)c1 (centres undefined)
22	-1%	-4.2%	6	-2%	O=C(COC(=O)c1cccc([N+](=O)[O-])c1)NCc1ccc2c(c1)OCO2
23	-2%	1.8%	1	-7%	C/C(CC(=O)N1CCN(C=O)CC1)=N\NC(=O)c1ccc(Br)cc1
24	2%	-0.8%	8	2%	O=C(CSc1nnc2c(n1)[nH]c1ccccc12)Nc1ccc(S(=O)(=O)Nc2ncccn2)cc1
25	-39%	nt	-6	nt	Nc1ccc(Sc2cc(Cl)nc(N)n2)cc1
26	8%	3.4%	nt	-17%	O=C(NCC1CCCCC1)c1cc([N+](=O)[O-])ccc1Cl
27	-2%	2.7%	-2	-5%	Cc1cccc(C)c1NC(=O)C(c1ccccc1)N1CCOCC1 (centres undefined)
28	-80%	?	9	?	CCN=C1S/C(=C\c2ccc(-c3cccc(C(=O)O)c3)o2)C(=O)N1CC
29	-9%	0.0%	-6	-6%	CCc1ccc2[nH]c(=O)c(CN(CCN(CC)CC)C(=O)NC3CCCCC3)cc2c1
30	1%	-1.5%	-8	-2%	Cc1cc(NC(=O)NN2CCOCC2)nn1-c1c(Cl)cccc1Cl
31	-8%	5.0%	6	-7%	O=C(Nc1ccc2c(c1)OCO2)C(c1ccccc1)N1CCCCC1 (centres undefined)
32	-5%	-0.7%	4	17%	O=C1Nc2ccccc2N=C(c2ccccc2)C1N1CCOCC1 (centres undefined)
33	-2%	-2.0%	nt	-9%	Cc1cc(Cl)ccc1NC(=O)CN1C(=O)NC2(CCCC2)C1=O
34	nt	?	nt	-2%	CCCCC1(C)NC(=O)N(CC(=O)Nc2ccc(Cl)cc2C)C1=O (centres undefined)
35	6%	-0.4%	5	-12%	COc1ccccc1CNS(=O)(=O)N(C)C
36	-13%	-2.2%	-7	-9%	O=C(C[n+]1ccc(Cc2ccccc2)cc1)Nc1ccccc1
37	-1%	5.2%	-3	9%	Cc1nnc2ccc(N3CCCC3)nn12
38	nt	0.3%	nt	21%	O=C1CCc2cc(Br)ccc2O1
39	-7%	2.9%	-19	6%	COc1ccc(OC)c(-c2cc(C(=O)Nc3c(C)nn(Cc4ccccc4)c3C)no2)c1
40	-2%	?	-10	?	CCCn1nc(-c2ccccc2)c2nc3ccccc3nc21

# From compound 36 as far as 40, as listed above:
cpd	miR-21 FLuc	Rango-impB inh	GLA inh pH 4.5	Rango release inh	SMILES
36	-13%	-2.2%	-7	-9%	O=C(C[n+]1ccc(Cc2ccccc2)cc1)Nc1ccccc1
37	-1%	5.2%	-3	9%	Cc1nnc2ccc(N3CCCC3)nn12
38	nt	0.3%	nt	21%	O=C1CCc2cc(Br)ccc2O1
39	-7%	2.9%	-19	6%	COc1ccc(OC)c(-c2cc(C(=O)Nc3c(C)nn(Cc4ccccc4)c3C)no2)c1
40	-2%	?	-10	?	CCCn1nc(-c2ccccc2)c2nc3ccccc3nc21

# Carrying on.
cpd	miR-21 FLuc	Rango-impB inh	GLA inh pH 4.5	Rango release inh	SMILES
41	-45%	1.6%	nt	-1%	CC(C)(C)n1cnc2cc(NCc3ccccc3O)ccc21
42	0%	1.1%	-8	-2%	COc1cccc2cc(C(C)N(CCCN3CCOCC3)C(=S)Nc3ccc(C)c(C)c3)oc12 (centres undefined)
43	nt	0.5%	nt	0%	CC(C)n1cnnc1SCC(=O)Nc1cccnc1Cl
44	2%	2.6%	0	0%	CCOC(=O)/C(C(N)=NC)=C(\O)c1ccccc1
45	-13%	?	9	-25%	O=C(O)c1ccc(-n2cc(-c3cc4ccccc4oc3=O)[nH]c2=S)cc1
46	-36%	0.6%	-3	0%	Cc1oc(C(C)(C)C)cc1C(=O)Nc1cccc(/C=C\C(=O)O)c1
47	nt	0.9%	nt	10%	CC(C)Oc1ccc2ccccc2c1CNC[C@H]1O[C@@H](n2cnc(C(N)=O)n2)[C@H](O)[C@@H]1O
48	0%	-0.6%	14[21.1 µM]	1%	Cc1cc(C)n(CC(=O)NC2C(=O)N3C(C(=O)O)=C(CSc4nnc(C)s4)CSC23)n1 (centres undefined)
49	nt	-4.2%	nt	11%	COc1cc(C(=O)OCC(=O)Nc2cc(S(=O)(=O)N3CCOCC3)ccc2C)ccc1OCC(C)C
50	nt	5.5%	nt	-5%	O=C(CC1C[C@H](C(=O)N2CCOCC2)[C@@]2(CCC3CCCC3)c3[nH]c4ccccc4c3CCN2C1=O)NCC12CC3CC(CC(C3)C1)C2 (some centres undefined)
51	-1%	?	nt	13%	COc1ccc(CNC(=O)CN(C(=O)c2snc(C(N)=O)c2N)c2cccc(F)c2)cc1
52	-17%	-1.9%	-2	-12%	Cc1ccc2cc(/C=N/NC(=O)CN3CCOCC3)c(Cl)nc2c1
53	4%	-2.8%	nt	-20%	Cc1ccc(NC(=S)N2CCN(S(=O)(=O)c3ccc(C)cc3)CC2)cc1
54	nt	4.4%	nt	8%	Cc1ccc(C)c(NC(=O)CN(C)C(=O)c2cccc(S(=O)(=O)N3CCCC3)c2)c1
55	-11%	0.2%	4	9%	CCOC(=O)C(=O)NNc1ccccc1C
56	1%	-0.2%	-6	-6%	COC(=O)C1=C(C)N(c2ccccc2)/C(=C/c2cccs2)C1=O
57	-16%	4.4%	-7	2%	COc1ccc(CSc2nc(C)[nH]c2[N+](=O)[O-])cc1[N+](=O)[O-]
58	-24%	?	nt	20%	COc1ccccc1C(=O)Nc1nnc(SCC(=O)NCc2ccco2)s1
59	nt	-3.3%	nt	10%	Cc1cc(C(=O)NNC(=O)c2sccc2C)c(C)o1
60	-4%	0.0%	nt	-8%	O=C(NCC(=O)N1CCN(c2ccccc2O)CC1)c1ccc2ccccc2c1
61	nt	2.5%	nt	12%	O=C(NC(=S)Nc1cccc(O)c1)c1cncc(Br)c1
62	-3%	0.9%	6	7%	CC(C)CCN1C(=O)c2ccccc2C1C(=O)NCc1cccnc1 (centres undefined)
63	0%	-2.7%	nt	14%	O=c1[nH]c(C2CCN(S(=O)(=O)c3ccccc3C(F)(F)F)CC2)nc2c1nnn2Cc1ccccc1
64	nt	-0.8%	nt	5%	CC(OC(=O)C1=COCCO1)C(=O)NC1CCCCC1C (centres undefined)
65	0%	5.6%	-1	-11%	CC(c1ccccc1)N1CC(C(=O)N2CCN(c3ccccc3)CC2)CC1=O (centres undefined)
66	nt	0.0%	nt	2%	O=S(=O)(c1ccc2c(c1)OCCO2)N1CCN(S(=O)(=O)c2c(F)cc(F)cc2F)CC1
67	0%	-0.1%	nt	-12%	C=CCOc1ccc(C2C(C#N)=C(N)N(N(C)C)C3=C2C(=O)CCC3)cc1 (centres undefined)
68	-55%	0.1%	5	0%	COc1ccccc1NC(=O)c1ccc(-c2ccccc2[N+](=O)[O-])o1
69	?	?	nt	?	COC1=C(N)C(=O)c2nc(-c3nc(C(=O)O)c(C)c(-c4ccc(OC)c(OC)c4O)c3N)ccc2C1=O
70	-1%	-0.7%	nt	3%	Cc1ccc2c(c1)N(CC(=O)NCCCN1CCCCC1)C(=O)CO2
71	-23%	?	-10	-4%	CCCOC(=O)c1cc(=O)[nH]c2ccccc12
72	6%	0.8%	nt	-5%	Cc1ccc(NS(=O)(=O)c2c(C)[nH]c(C)c2C(=O)N2CCCC2)cc1Cl

# Taken from above:
# Result for compound 56 in Rango-impB inh: -0.2%
# Result for compound 48 in Rango release inh: 1%
# Result for compound 42 in Rango-impB inh: 1.1%
# Result for compound 71 in GLA inh pH 4.5: -10
# Result for compound 46 in GLA inh pH 4.5: -3

# An excerpt of these results, with two lines to a compound.
# Values in the order: miR-21 FLuc	Rango-impB inh	GLA inh pH 4.5	Rango release inh
[71] CCCOC(=O)c1cc(=O)[nH]c2ccccc12
    -23%	?	-10	-4%
[65] CC(c1ccccc1)N1CC(C(=O)N2CCN(c3ccccc3)CC2)CC1=O (centres undefined)
    0%	5.6%	-1	-11%
[63] O=c1[nH]c(C2CCN(S(=O)(=O)c3ccccc3C(F)(F)F)CC2)nc2c1nnn2Cc1ccccc1
    0%	-2.7%	nt	14%
[68] COc1ccccc1NC(=O)c1ccc(-c2ccccc2[N+](=O)[O-])o1
    -55%	0.1%	5	0%

# Screening results: PubChem BioAssay, National Center for Advancing Translational Sciences (NCATS)

# Not all compounds are listed; count on the stated rates, not on these rows.
